Six1-Eya2 blk = inhibitors of human Six1/Eya2 interaction; Q15475+O00167; AlphaScreen GST-Six1/His-Eya2 binding, biochemical; stronger effect = lower value; control for the full effect not named in the record; activity change, % (no concentration beside the values); hit rate 0.56% among 360,000; AID 651725; in the data active = activity change below about -65%; inconclusive = about -30% to -65%; inactive = above about -30%; further: compound concentration not given in the record
Target sequence (O00167 whole entry, looked up): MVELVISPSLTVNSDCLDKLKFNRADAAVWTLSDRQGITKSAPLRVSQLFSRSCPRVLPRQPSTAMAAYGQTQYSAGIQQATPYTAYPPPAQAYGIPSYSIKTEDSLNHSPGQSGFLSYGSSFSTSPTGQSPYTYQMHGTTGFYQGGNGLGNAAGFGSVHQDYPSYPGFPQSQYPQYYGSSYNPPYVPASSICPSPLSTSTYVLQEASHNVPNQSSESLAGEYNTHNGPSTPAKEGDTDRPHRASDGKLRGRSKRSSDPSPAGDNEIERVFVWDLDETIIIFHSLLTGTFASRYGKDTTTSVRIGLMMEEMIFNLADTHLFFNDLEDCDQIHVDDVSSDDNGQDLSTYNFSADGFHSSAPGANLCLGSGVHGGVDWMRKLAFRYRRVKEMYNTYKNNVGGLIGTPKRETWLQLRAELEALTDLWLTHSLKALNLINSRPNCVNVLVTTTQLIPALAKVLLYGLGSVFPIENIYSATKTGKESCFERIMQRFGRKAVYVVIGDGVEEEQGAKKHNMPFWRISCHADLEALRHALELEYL
Target sequence (Q15475 whole entry, looked up): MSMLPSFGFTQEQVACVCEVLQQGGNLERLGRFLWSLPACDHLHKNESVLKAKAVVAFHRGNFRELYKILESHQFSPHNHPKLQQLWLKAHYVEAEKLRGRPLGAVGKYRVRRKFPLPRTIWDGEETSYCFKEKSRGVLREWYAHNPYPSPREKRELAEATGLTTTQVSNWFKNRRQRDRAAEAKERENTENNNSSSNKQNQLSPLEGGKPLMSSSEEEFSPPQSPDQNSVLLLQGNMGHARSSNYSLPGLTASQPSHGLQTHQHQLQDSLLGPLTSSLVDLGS
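Homogeneous AlphaScreen proximity assay pairing GST-Six1 with His-tagged Eya2 (added as 5X mix: 250 nM and 500 nM) in 50 mM Tris pH 8.0, 300 mM NaCl, 1 mM TCEP. Glutathione donor and nickel acceptor beads; 1 h, 37 °C, dark.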
CtBP-E1A inh = inhibitors of CtBP/E1A interaction; AlphaScreen GST-E1A/His-CtBP binding, 1536-well; stronger effect = lower value; control for the full effect not named in the record; activity change, % (no concentration beside the values); hit rate 0.49% among 340,000; AID 651724; in the data active means activity change below about -65%; inconclusive means about -30% to -65%; inactive means above about -30%; further: compound concentration not given in the record
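GST-E1A and His-tagged CtBP (125 nM each as 5X stock) were preincubated with pin-transferred compound for 2 h at 37 °C in the dark, then glutathione donor and nickel acceptor beads were added for 1 h before AlphaScreen reading.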
* marks the source's active call; other numbers are inactive results. On the % scale 0 is the no-effect control and ±100 the full control effect. Only part of the results is shown. The share of hits here may be higher or lower than overall.

Below each SMILES: Six1-Eya2 blk | CtBP-E1A inh
CC(=O)Nc1cccc(-c2nc3ccccc3n2C(C(=O)NC(C)(C)C)C2CC2)c1 (stereo not given)
    2.4 | 6.2
COC(=O)[C@@]12C[C@@H](CC(=O)NCc3cccc(C(F)(F)F)c3)C(=O)N(Cc3ccco3)C1=CCC(C)(C)C2
    -8.6 | -3.6
CC1(C(=O)Nc2ccc3c(c2)OCCO3)CSCC(=O)N1C1CC1 (stereo not given)
    -1.4 | 3.3
CCCCNc1c(-c2cccnc2)nc2nc(C)cc(C)n12
    -14.1 | 1.6
CC(C)NC(=O)C1C(c2ccc(C(F)(F)F)cc2)=Nc2ccccc2N1C(=O)c1cc2ccccc2[nH]1 (stereo not given)
    2.7 | -1.0
CCCCOCCCNC(=O)C[C@@H]1C[C@@]2(C(=O)OCC)CCC=C2N(CCC2=CCCCC2)C1=O
    13.5 | -13.0
CCCCOCCCNC(=O)C[C@@H]1C[C@@]2(C(=O)OC)CC(C)(C)CC=C2N(Cc2ccco2)C1=O
    -1.5 | -1.2
COC(=O)C[C@@H]1CC[C@H](NC(=O)c2ccccc2)[C@@H](CO)O1
    9.8 | -4.9
Cc1cc(C)cc(Cn2cc(CN3CC(N4CCCC4)CS3(=O)=O)nn2)c1 (stereo not given)
    0.0 | 1.4
Cc1cccc(C)c1NC(=O)C(C1CC1)n1c(=O)c(-c2cc3ccccc3[nH]2)nc2ccccc21 (stereo not given)
    64.5 | 40.1
Cc1ccc(C)c(N2CCN(C(c3ccccc3)c3nnnn3C(C)(C)C)CC2)c1 (stereo not given)
    -6.8 | -12.1
CC(C)(C)NC(=O)C1c2ccccc2OCC(=O)N1CCCN1CCOCC1 (stereo not given)
    -4.5 | 3.4
O=C(NCc1ccccc1)C1c2ccccc2OCC(=O)N1Cc1ccccc1 (stereo not given)
    -8.0 | -1.4
COC(=O)[C@@]1(Sc2ccc(C)cc2)CC(=O)N(C(=O)C2CC2)[C@@H]1c1ccccc1
    -0.8 | -3.4
CCOC(=O)[C@]12CCC=C1N(Cc1ccc3c(c1)OCO3)C(=O)[C@H](CC(=O)NCc1cccs1)C2
    -8.8 | 1.1
Cc1cccc(C)c1NC(=O)C1(C)CSCC(=O)N1Cc1cccc(C(F)(F)F)c1 (stereo not given)
    -1.7 | 9.0
COC(=O)c1sc(NC(=O)OCc2ccccc2)nc1CCNC(=O)OC(C)(C)C
    -2.2 | -14.0
O=C1C=C(OCCCl)CC(c2cccc(Cl)c2)O1 (stereo not given)
    -1.6 | 6.3
CCC(C(=O)NC(C)(C)C)n1c(C(c2ccccc2)c2ccccc2)nc2ccccc21 (stereo not given)
    3.9 | -1.3
CC(=O)O[C@@H](Cc1ccc(O)cc1)C(=O)CC(C)C
    -15.3 | -1.0
O=C(NCCN1CCC(n2c(=O)[nH]c3ccccc32)CC1)c1cccs1
    13.7 | -13.6
CCOC(=O)[C@]12CCC=C1N(Cc1ccco1)C(=O)[C@H](CC(=O)N1CCOCC1)C2
    10.5 | -15.1
CC(C)C[C@@H](CN1CCC[C@H]1CN1C(=O)C(=O)NC[C@@H]1Cc1ccc(O)cc1)N1C[C@H](Cc2ccc(O)cc2)N(CC2CCCCCC2)C(=O)C1=O
    -8.0 | -5.7
CCOC(=O)[C@]12CCCC=C1N(Cc1ccccc1)C(=O)[C@H](CC(=O)NCc1cccc3ccccc13)C2
    -6.9 | 3.7
CCc1oc(-c2ccc(OC)cc2)c(C(=O)OCCCCCO)c1C(C)OCCO (stereo not given)
    -3.3 | -5.1
O=C(C[C@H]1CC[C@@H]2[C@H](COC[C@H](O)CN2Cc2cccc(F)c2)O1)NCc1cccc(F)c1
    3.3 | 1.6
C=CCOC(=O)Nc1nc(CCNC(=O)OCc2ccccc2)c(C(=O)O)s1
    -2.4 | 6.4
COC(=O)[C@]12CCCCC=C1N(Cc1ccco1)C(=O)[C@H](CC(=O)NCCCCc1ccccc1)C2
    -13.7 | -8.3
O=C(C[C@H]1CC[C@@H]2[C@H](COC[C@@H](O)CN2Cc2ccc(Cl)cc2)O1)NCCc1ccccc1
    4.8 | -19.9
CC(C)c1cc(Cn2c3ccccc3c(=O)n2C(C)Cn2cc(COc3ccccc3)nn2)on1 (stereo not given)
    3.9 | 6.4
CCOC(=O)c1cc2ccccc2n1C1CCN(CCc2ccccc2)CC1
    -26.0 | -19.9
CCOc1ccc(CCN2C(=S)N([C@@H](Cc3ccccc3)CN3CCC[C@@H]3CN3C(=S)NC[C@@H]3CC(C)C)C[C@@H]2Cc2ccccc2)cc1
    0.0 | 11.8
COc1cccc(CNC(=O)[C@@H]2CCCN2C(=O)[C@H]2CCCCN2C(=O)c2ccccc2)c1
    1.3 | 2.4
O=C1c2ccccc2C(c2nnnn2Cc2ccccc2)N1CCc1ccc(O)cc1 (stereo not given)
    3.4 | 7.7
O=C1NC[C@H](Cc2ccccc2)N(C[C@@H]2CCCN2C[C@H](Cc2ccc(O)cc2)N2C[C@H](Cc3ccccc3)N(CCc3ccccc3)C(=O)C2=O)C1=O
    -15.7 | 5.2
CN1CCN(C(=O)C2=NOC3(C2)C(=O)Nc2ccccc23)CC1 (stereo not given)
    19.7 | 0.0
COC(=O)c1ccc(N2C(c3cc(OC)cc(OC)c3)=Cc3ccc(OC)cc3C2CC(=O)c2ccco2)cc1 (stereo not given)
    -9.4 | -29.5
O=S1(=O)CC(N2CC=CC2)CN1Cc1cn(Cc2ccc(F)cc2)nn1 (stereo not given)
    -8.4 | 1.0
Cc1ccc(S(=O)(=O)N2C[C@@]3(O)Cn4c(=O)ccc(=O)n4C[C@@]3(OC(=O)NCC3CCCCC3)C2)cc1
    -0.6 | 5.2
O=S1(=O)N[C@H](Cc2ccccc2)COc2cc(N3CCN(Cc4ccccc4F)CC3)ccc21
    1.3 | 6.3

Continued:
SMILES	Six1-Eya2 blk	CtBP-E1A inh
C[C@@H]1COc2cccc(N3CCSCC3)c2S(=O)(=O)N1	9.5	-4.2
COC(=O)[C@]12CCCCC=C1N(CCC1=CCCCC1)C(=O)[C@H](CC(=O)N1CCCCC1)C2	-0.1	-11.2
CCCCN1C(=O)C(CC(=O)NCCCCc2ccccc2)CC(C(=O)N2CCCCCC2)=C1C (stereo not given)	-4.1	-0.1
COc1ccc(CN2C(=O)CN(S(C)(=O)=O)CC2(C)C(=O)NCc2ccccc2)cc1OC (stereo not given)	-9.2	-7.7
Cc1ccc(C(=O)N2c3ccccc3N=C(c3ccccc3)C2C(=O)NC(C)C)cc1 (stereo not given)	7.9	0.0
O=C(C[C@H]1C=C[C@@H](NS(=O)(=O)c2ccccc2)[C@@H](CO)O1)NCc1ccc(Cl)c(Cl)c1	-12.9	4.7
CC(C)NC(=O)CN1CCN(C(c2ccnc3ccccc23)c2nnnn2-c2ccc3c(c2)OCCO3)CC1 (stereo not given)	4.4	4.9
CC(C)(C)n1nnnc1C1c2ccccc2C(=O)N1CCc1c[nH]c2ccccc12 (stereo not given)	13.6	38.5
CC(=O)OCC(C)n1c(=O)c2ccccc2n1C(C)=O (stereo not given)	-4.3	0.6
O=C(NCc1ccccc1)C1C(c2ccccc2)=Nc2ccccc2N1C(=O)c1ccncc1 (stereo not given)	-3.9	-4.5
Cc1ccc(-c2nc3ccc(C)cn3c2Cc2cccc(Cl)c2)cc1	-12.7	-0.6
Cc1ccc(OCc2nc3ccccc3n2C(C(=O)Nc2c(C)cccc2C)C2CC2)cc1 (stereo not given)	-24.5	-16.4
CC(C)(C)NC(=O)C(c1cc2ccccc2o1)n1c(=O)c(-c2ccco2)nc2ccccc21 (stereo not given)	-0.2	12.4
COc1ccc(C(C(=O)NC2CCCC2)n2c(C3CCN(C(C)=O)CC3)nc3ccccc32)cc1 (stereo not given)	6.7	-20.0
COC(=O)/C=C1\OCc2cccc(C)c21	1.7	5.1
COCCCN1C(=O)C(CC(=O)NC(c2ccccc2)c2ccccc2)CC(C(=O)N2CCCCCC2)=C1C (stereo not given)	0.3	8.4

Retrieved one by one from above, 2 records:
SMILES	Six1-Eya2 blk	CtBP-E1A inh
Cc1ccc(C(=O)N2c3ccccc3N=C(c3ccccc3)C2C(=O)NC(C)C)cc1 (stereo not given)	7.9	0.0
C=CCOC(=O)Nc1nc(CCNC(=O)OCc2ccccc2)c(C(=O)O)s1	-2.4	6.4

Further results
SMILES	Six1-Eya2 blk	CtBP-E1A inh
O=c1ccc(-c2nc3ccccc3n2C(CCc2ccccc2)c2nc3ccccc3[nH]2)c[nH]1 (stereo not given)	-9.5	-7.0
COc1ccc(CCC(=O)N2c3ccccc3N=C(c3ccc(C(F)(F)F)cc3)C2C(=O)NC(C)C)cc1 (stereo not given)	2.1	3.3
CCCC[C@@H]1CNC(=O)C(=O)N1CCCC	11.8	-0.2
O=c1[nH][nH]c2c1C(c1cccc(C(F)(F)F)c1)OC(CCc1ccccc1)C2 (stereo not given)	-4.7	-6.3
Cc1ccc(S(=O)(=O)N2[C@@H](CO)CO[C@H]2CC(=O)c2ccc(F)cc2)cc1	18.4	4.6
COC(=O)C[C@H]1C=C[C@@H](NC(=O)C2CC2)[C@@H](CO)O1	-4.1	1.6
Cc1nc2ccc(C(=O)N3c4ccccc4N=C(c4ccc(C(F)(F)F)cc4)C3C(=O)NC(C)(C)C)cc2[nH]1 (stereo not given)	10.7	-5.1
Cc1ccc(C(=O)Nc2c(-c3ccccc3)[nH][nH]c2=O)cc1	3.7	4.2
Cc1cccc(C)c1-n1nnnc1C1(C)CCC(=O)N1Cc1cccs1 (stereo not given)	1.6	-1.3
COC(=O)[C@]12CCCCC=C1N(Cc1ccccc1)C(=O)[C@H](CC(=O)NCC1CCCCC1)C2	-3.2	2.0
Cc1nc2ccc(C(=O)N3c4ccccc4N=C(c4ccc5c(c4)OCO5)C3C(=O)NCc3ccccc3)cc2[nH]1 (stereo not given)	-10.1	-13.2
CCOC(=O)[C@]12CCCC=C1N(Cc1ccc3c(c1)OCO3)C(=O)[C@H](CC(=O)N1CCSCC1)C2	-7.3	-2.6
COc1cccc(C(C(=O)NC2CCCC2)N2CCN(c3cc(C)ccc3C)CC2)c1OC (stereo not given)	-7.1	-2.8
COc1ccc(NC(=O)C(c2ccc(C(F)(F)F)cc2)n2c(=O)c(-c3cc4ccccc4[nH]3)nc3ccccc32)cc1 (stereo not given)	57.7	19.5
O=C(NCc1ccccn1)[C@@H]1CCCN1C(=O)[C@@H]1CCCN1C(=O)c1cccs1	-1.9	8.3
CC1(C(=O)NCc2ccccc2)CCC(=O)N1C1CCN(Cc2ccccc2)CC1 (stereo not given)	-1.6	5.3
CCCCOCCCNC(=O)C[C@@H]1C[C@@]2(C(=O)OC)CCCCC=C2N(Cc2ccco2)C1=O	-4.6	3.9
CCNC(=O)c1cc2c(c(-c3cccc(-c4cc5ccccc5o4)c3)n1)[C@H](CCO)N(C(=O)NC(C)C)C2	-25.2	-26.1
COCC(=O)N1C[C@@H](C)[C@@H](OC)CN(C)C(=O)c2ccc(NC(=O)c3cnccn3)cc2OC[C@H]1C	2.9	0.0
Cc1cc(C)c(NC(=O)C2C(=O)Nc3ccccc3C(=O)N2C(C)(C)C)c(C)c1 (stereo not given)	-7.8	1.4
CC1(C(=O)Nc2ccc3c(c2)OCCO3)CN(S(C)(=O)=O)CC(=O)N1Cc1cccc(F)c1 (stereo not given)	6.9	-1.0
O=C(Nc1ccc(C(=O)N2CCN(c3ccncc3)CC2)cc1)c1ccc(Br)o1	-3.8	7.1
O=C(Nc1ccc(Cl)cc1)N[C@@H]1CC[C@H](CCNS(=O)(=O)c2ccccc2F)O[C@@H]1CO	6.3	-13.3
C[C@H](NC(=O)[C@@H]1CCCN1C(=O)[C@@H]1CCCN1C(=O)OC(C)(C)C)c1ccccc1	11.1	1.7
CCCCN1C(=O)C(CC(=O)NCCCN(C)C)CC(C(=O)N(C(C)C)C(C)C)=C1C (stereo not given)	-8.6	4.5
O=c1[nH][nH]c2c1[C@H](CCc1cccc(Cl)c1)O[C@H](C1CCCC1)C2	-11.4	-4.0
Clc1cccc(Cc2c(-c3cccc(Br)c3)nc3c4ccccc4ccn23)c1	-0.3	1.5
O=C(Nc1ccc2c(c1)OCCO2)C1c2ccccc2OCC(=O)N1CCc1c[nH]c2ccccc12 (stereo not given)	-16.9	-5.1
COC(=O)[C@]12CCCCC=C1N(CCc1ccc(OC)c(OC)c1)C(=O)[C@H](CC(=O)NCc1ccccc1)C2	-2.9	10.2
COc1cc(OC)cc(-c2c(Sc3ccccc3)c3cc(-c4ccc(SC)cc4)ccc3n2C)c1	-4.0	-1.1
COC(=O)C1=CN(c2cccc(OCc3ccccc3)c2)C(N)=C(C#N)C1c1cccc(F)c1 (stereo not given)	1.8	-1.1
CC(=O)N1CCN(C(=O)OC2CC3CC2[C@H]2CCCCN2C3=O)CC1 (stereo not given in full)	0.3	1.1
COC(=O)[C@@]1(Cc2ccc(F)cc2)[C@H]2c3cc(C(=O)N(C)C)n(Cc4cc(C)n(C)n4)c3C[C@H]2CN1C(=O)c1ccccc1	-15.0	1.9

A run of entries from the list above, for reference:
SMILES	Six1-Eya2 blk	CtBP-E1A inh
COC(=O)C1=CN(c2cccc(OCc3ccccc3)c2)C(N)=C(C#N)C1c1cccc(F)c1 (stereo not given)	1.8	-1.1
CC(=O)N1CCN(C(=O)OC2CC3CC2[C@H]2CCCCN2C3=O)CC1 (stereo not given in full)	0.3	1.1
COC(=O)[C@@]1(Cc2ccc(F)cc2)[C@H]2c3cc(C(=O)N(C)C)n(Cc4cc(C)n(C)n4)c3C[C@H]2CN1C(=O)c1ccccc1	-15.0	1.9

Assay outcomes: PubChem, National Center for Advancing Translational Sciences (NCATS)
